# KCNQ2 pot = potentiators of rat KCNQ2 potassium channel; 0.54% of 310,000 active; O88943; B-score at 10 µM; CHO-K1 KCNQ2, FluxOR thallium flux fluorescence; stronger effect = higher value; AID 2239;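 active = fluorescence ratio B-score at least 3 SD of library B-scores, with initial fluorescence B-score within 3 SD, cut at about 5.3 in these data; same plate scores as AID 2156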;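 also: B-score of peak minus minimum over baseline fluorescence ratio after K+ and Tl+ stimulus; positive B-score means potentiation of KCNQ2 with more thallium influx and brighter signal; only the inactives scoring about 0 or higher are listed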
# Target sequence (O88943 whole entry, looked up): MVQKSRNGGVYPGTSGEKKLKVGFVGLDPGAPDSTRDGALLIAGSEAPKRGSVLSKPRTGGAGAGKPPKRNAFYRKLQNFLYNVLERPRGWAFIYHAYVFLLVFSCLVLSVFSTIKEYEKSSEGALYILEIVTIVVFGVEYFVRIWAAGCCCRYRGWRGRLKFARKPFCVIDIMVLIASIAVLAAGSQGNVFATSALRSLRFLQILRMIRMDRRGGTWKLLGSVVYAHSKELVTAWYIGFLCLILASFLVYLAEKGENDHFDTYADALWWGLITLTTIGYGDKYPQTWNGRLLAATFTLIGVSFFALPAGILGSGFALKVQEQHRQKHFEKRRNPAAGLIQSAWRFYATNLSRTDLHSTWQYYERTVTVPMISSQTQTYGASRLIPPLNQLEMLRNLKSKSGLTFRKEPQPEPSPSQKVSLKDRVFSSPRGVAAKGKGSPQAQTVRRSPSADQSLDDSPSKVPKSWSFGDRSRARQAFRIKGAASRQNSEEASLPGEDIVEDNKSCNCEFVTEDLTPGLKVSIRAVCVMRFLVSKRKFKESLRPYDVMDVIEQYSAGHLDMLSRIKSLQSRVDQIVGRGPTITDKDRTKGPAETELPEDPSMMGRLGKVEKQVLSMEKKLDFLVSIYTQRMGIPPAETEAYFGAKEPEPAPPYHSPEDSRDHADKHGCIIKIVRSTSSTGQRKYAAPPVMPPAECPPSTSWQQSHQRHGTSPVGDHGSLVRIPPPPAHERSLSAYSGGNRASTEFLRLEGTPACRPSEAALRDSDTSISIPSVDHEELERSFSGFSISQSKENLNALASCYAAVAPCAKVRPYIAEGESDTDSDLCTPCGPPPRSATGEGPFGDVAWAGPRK
# KCNQ2 pot baseline = recorded beside KCNQ2 pot, whose call it bears; B-score; compound at 10 µM; measured here: initial fluorescence intensity artifact check;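 brightness before thallium and not channel activity; 0 = typical well and far values either way flag optical interference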
# The depositor's hits bear a star; / = not tested or not shown.
SMILES,KCNQ2 pot,KCNQ2 pot baseline
CCCN1C(=S)SC(C)(C)C1/[N+]([O-])=C/c1ccc(S(=O)(=O)NC)cc1 (stereo not given),1.03,-1.51
CCN1CCN(C(=O)CN2C(=O)COc3ccc(C)cc32)CC1,0.93,2.38
CN1CCCC1c1cccnc1 (stereo not given),1.16,0.64
Cc1cc(/C=N/Nc2nc(N)ncc2[N+](=O)[O-])c(C)n1-c1ccccc1F,0.47,-0.35
O=C1CCCN1c1ccc(S(=O)(=O)N2CCN(c3ccccn3)CC2)cc1,0.44,-0.16
COc1ccc(-c2cn3cccnc3n2)cc1NC(=O)C(C)C,1.09,-1.07
CC(=O)c1c(C)[nH]c(C(=O)CSc2nc3ccc(C)cc3[nH]2)c1C,0.13,0.09
CC[N+](CC)(CCO)CCCN1C(=O)C2CC=C(Cl)CC2C1=O (stereo not given),0.08,-1.91
Cc1cccc(NC(=O)c2cc(-c3ccco3)nc3ccccc23)n1,0.37,-0.78
O=C(O)C1Sc2[nH]c(=O)sc2C2c3cc(Cl)ccc3OC(=O)C12 (stereo not given),0.08,-1.52
Cn1ncc2c(Nc3ccc4ccccc4c3)ncnc21,0.8,-0.36
C[C@H]1C=C(C(=O)N2CCOCC2)O[C@@H](OCc2ccc(CO)cc2)C1,0.34,-0.54
CCOc1ccc(C(=O)NC(=S)Nc2ccc(NC(=O)c3ccco3)c(C)c2)cc1[N+](=O)[O-],0.53,-1.05
O=C(Cc1cccs1)NCc1ccc2c(c1)OCO2,0.2,-1.16
C=CCN(C(=O)CCC(=O)Nc1cc(C)on1)C(C(=O)NC(C)(C)C)c1cccc(OC)c1OC (stereo not given),0.21,-2.23

# Record cards, as listed above. Order of screens: KCNQ2 pot	KCNQ2 pot baseline
# CCOc1ccc(C(=O)NC(=S)Nc2ccc(NC(=O)c3ccco3)c(C)c2)cc1[N+](=O)[O-] in the list: 0.53	-1.05
# O=C1CCCN1c1ccc(S(=O)(=O)N2CCN(c3ccccn3)CC2)cc1 in the list: 0.44	-0.16
# Cc1cc(/C=N/Nc2nc(N)ncc2[N+](=O)[O-])c(C)n1-c1ccccc1F in the list: 0.47	-0.35
# CN1CCCC1c1cccnc1 (stereo not given) in the list: 1.16	0.64

# Additional records
SMILES,KCNQ2 pot,KCNQ2 pot baseline
OC(CN1CCN(c2ccccc2)CC1)Cn1c2ccccc2c2ccccc21 (stereo not given),0.64,-0.63
CNC(=O)c1nn(-c2ccc(C)cc2)ccc1=O,0.54,0.62
Cc1cc(/C=C2\SC(=O)N(C)C2=O)c(C)n1-c1ccc(O)cc1,0.9,0.17
C/C(=N\NC(=O)NC1CCCCC1)C1CCCCC1,0.54,-0.28
COc1ccc(S(=O)(=O)N(C)CC(=O)N2CCN(Cc3ccccc3)CC2)cc1C,1.42,-1.21
COCc1nc2ccccc2n1Cc1ccc(Br)cc1,0.15,0.54
CCCCCCC/C(C)=N/NC(=O)CC(=O)NCCc1ccccc1,5.58*,0.52*
c1cnc2ccc(-c3ccc4ncccc4c3)cc2c1,1.05,-0.31
COc1ccc(C(=O)CCS(=O)(=O)c2ccc(F)cc2)cc1OC,6.64*,0.49*
CCS(=O)(=O)c1ccc(C(=O)Nc2ccccc2OC)c(Cl)c1Cl,2.9,-0.67
C=CC[C@]12C[C@@H](OC)C(=O)C=C1O[C@@H](c1ccc(OC)c(OC)c1)[C@H]2C,0.68,0.52
COc1ccc(-c2noc(CN(C(=O)c3ccc4c(c3)OCO4)C(C)C)n2)cc1OC,1.32,-0.61
O=C(CSc1ccc(Cl)cc1)Nc1cc(-c2nc3ncccc3o2)ccc1Cl,0.25,-0.11
CCN(CCCNC(=O)CCc1nc(-c2ccc(OC)cc2)no1)c1cccc(C)c1,0.92,-1.19
CC(C)c1ccc(CN(C(=O)c2cccs2)C2CCS(=O)(=O)C2)cc1 (stereo not given),0.05,0.89
Cc1ccc(CCNC(=O)C2CCC(=O)N(Cc3cccc(F)c3)C2)cc1 (stereo not given),0.39,0.18
CCOC(=O)c1nn(-c2ccccc2)c2nnc(Cc3ccc(Cl)cc3)c(=O)n12,0.46,-1.61
CCN=C1S/C(=C\c2cn(C(C)=O)nc2-c2ccccc2)C(=O)N1CC,3,0.45
COc1cc(/C=N/O)ccc1OCc1ccc(C(=O)O)cc1,2.12,-0.05
COc1ccccc1/C=C/C1(C(=O)NC2CCCC2)CC(=O)N1c1ccc(C)cc1 (stereo not given),1.19,-2.23
CCOC(=O)c1cc2c(=O)n3ccccc3nc2n(C(C)C)c1=NC(=O)c1ccncc1,2.37,-1.36
COc1ccc(CN2CCN(Cc3ccco3)CC2)c(OC)c1,0.44,0.31
CCN(CC)c1ccc2c(Nc3ccccc3)c(C=O)c(=O)oc2c1,1.97,-0.52
COc1ccc(C(=O)Nc2ccccc2NC(=O)c2ccc(OC)cc2)cc1,0.08,-0.36
COc1ccc(-c2c[nH]c(=O)[nH]c2=O)cc1OC,1.59,-2.42
CN1CCN(c2cnn(-c3ccccc3)c(=O)c2Br)CC1,0.81,-0.43
Cc1ccccc1C(=O)c1c[nH]c(C(=O)NCc2cccs2)c1,0.35,-0.84
CCn1nc(NS(=O)(=O)c2ccc([N+](=O)[O-])cc2)c2cc3ccccc3nc21,0.03,0.14
COc1cccc(-c2csc(N3CCN(CC(=O)NNC(=O)c4ccc(Br)cc4)CC3)n2)c1,0.43,-0.01
COc1ccccc1NC(=O)CSc1nnc(COc2ccc(Cl)cc2)o1,0.39,-0.59
COc1ccc(N2CCN(C(=O)c3ccc(OCc4c(C)noc4C)c(OC)c3)CC2)cc1,0.11,-0.02
O=C(CN(C(=O)Cn1nnc(-c2ccc(F)cc2)n1)c1cccc(F)c1)NC1CCCC1,0.82,1.06
Nc1nonc1-c1nc2ccccc2n1CC(=O)N1CCCCC1,0.03,-0.04
CN(C)c1ccc(CNc2ncnc3sccc23)cc1,1.67,-0.07
O=C(c1ccccc1)c1ccc2nc(-c3ccc(NC(=O)c4ccccc4Br)cc3)[nH]c2c1,2.26,-0.01
COc1cc(CC2C(=O)Nc3ccccc32)cc(C)c1O (stereo not given),0.04,-1.38
O=C(Nc1ccnn1C1CCN(C2CCC2)CC1)c1cccc(F)c1,0.24,-0.55
CCOC(=O)CNc1nc(Cl)nc(Nc2ccc(OC)cc2OC)n1,0.29,0.25
Cc1ccc[n+](CC(=O)c2ccc(Cl)cc2)c1,0.63,1.72
CC1Cc2ccccc2N1C(=O)c1cnc2n(c1=O)CCS2 (stereo not given),0.32,-0.81
Cc1ccc(CNC(=O)CCn2c(=O)oc3ccccc32)cc1,0.18,-0.81
O=C(CSc1nc(-c2ccccc2)nc2ccccc12)Nc1nccs1,1.55,-0.12
CC(=O)c1cccc(NC(=O)C(OC(=O)c2cccc(S(=O)(=O)N(C)c3ccccc3)c2)c2ccccc2)c1 (stereo not given),-5.55,/
CC(=O)N1c2ccccc2C(=O)C1N1CCCCC1 (stereo not given),0.83,-2.06
CSCCC(=O)N1CCC(CCC(=O)NC2CC2)CC1,0.3,-0.39
CCOC(=O)c1nnn(CC(=O)Nc2ccccc2)c1C(=O)OCC,0.9,0.58
Cn1cnc(S(=O)(=O)NCc2cccs2)c1,0.18,0.3
COc1ccccc1CNC(=O)C1CCN(S(=O)(=O)c2cccc3nonc23)CC1,0.4,0.59
Cc1ccc(S(=O)(=O)N2CCC(C(=O)N3CCc4ccccc43)CC2)cc1,1.31,0.3
CCSc1nc(-c2ccccc2)c(-c2ccccc2)n1CC(O)CO (stereo not given),0.11,-0.67
COC(=O)CN1C(=O)C(O)(CC(=O)c2ccc(Br)cc2)c2ccccc21 (stereo not given),0.15,-0.55
O=C(O)C1C2C=CC3(CN(Cc4ccco4)C(=O)C13)O2 (stereo not given),1.87,-1.86
COc1cccc(N2C(=O)C3C(C2=O)C2C=CC3C23CC3)c1 (stereo not given),1.28,-0.98
COC(=O)C1CCN(C(=O)C2CCN(C(=O)[C@H](C)NS(=O)(=O)c3ccc(C)cc3)CC2)CC1,0.65,-0.79
CCn1nc(C)c(NC(=O)c2ccc(Br)o2)c1C,1.31,-0.64
O=S(=O)(Nc1ccc(Cl)cn1)c1cccs1,2.16,-1.09
CNCCCc1[nH]nc(N)c1C#N,0.58,1.68
CCOC(=O)C1=C(C)NC(C)=C(C(=O)OCC)C1C(=O)OCC(=O)N1CCCCC1CC (stereo not given),0.76,0.63
CN1CCN(CCCn2cnc3c(=O)oc4ccccc4c32)CC1,0.29,0.01
COc1ccc(C(=O)O/N=C(\N)c2ccc(OC)c(OC)c2)cc1,1.96,-1.51

# Overlap with the part before: 3 compounds; new compounds follow.
SMILES,KCNQ2 pot,KCNQ2 pot baseline
CCOC(=O)C1=C(C)NC(C)=C(C(=O)OCC)C1C(=O)OCC(=O)N1CCCCC1CC (stereo not given),0.76,0.63
CN1CCN(CCCn2cnc3c(=O)oc4ccccc4c32)CC1,0.29,0.01
COc1ccc(C(=O)O/N=C(\N)c2ccc(OC)c(OC)c2)cc1,1.96,-1.51
C[C@H](NC(=O)c1nc[nH]c1C(=O)N[C@@H](Cc1ccccc1)C(=O)OC(C)(C)C)c1ccccc1,0.09,0.41
COc1ccc(CN(C)CC(=O)c2c(N)n(Cc3ccccc3)c(=O)n(C)c2=O)c(OC)c1,2.16,-2.04
Cc1cc(C)cc(-n2ncc3c2CCCC3NC(=O)CN2CCCCC2=O)c1 (stereo not given),1.46,1.02
Cc1nnc(SC(C)C(=O)N2CCc3ccccc32)s1 (stereo not given),0.03,0.22
COC(=O)c1ccc(CN2CCC(Oc3cccc(C(=O)N4CCOCC4)c3)CC2)cc1,0.02,0.58
Cc1ccc(S(=O)(=O)N2CCCC(C(=O)NCC3COCCO3)C2)cc1 (stereo not given),0.16,0.63
Cn1cc(S(=O)(=O)N2CCN(c3cccc(Cl)c3)CC2)c(=O)n(C)c1=O,0.5,-0.63
CC(NC(=O)c1ccc(Br)cc1Br)c1ccccc1 (stereo not given),0.51,0.32
CCCCN(C(=O)/C=C/c1ccccc1)C1CCS(=O)(=O)C1 (stereo not given),0.07,-0.05
CCOc1ccc(-c2nnc(NC(=O)CCCOc3cccc(C)c3)o2)cc1,0.18,0.81
Cc1ccc(N=Nc2c(=O)[nH]n3c(=O)cc(C)[nH]c23)cc1,1.61,0.04
O=C(Nc1ccc(F)c(F)c1)c1ccco1,0.18,0
CCOC(=O)/C(=N\Nc1ncnc2ccccc12)c1ccc(OC)cc1,0.72,-2
COc1ccc(N2CCN(S(=O)(=O)c3cccc4cccnc34)CC2)cc1,1.13,-0.46
COC(=O)C[C@H]1c2cc(F)ccc2S(=O)(=O)N1c1ccccc1,0.17,-0.93
CCOc1ccccc1C(=O)N(Cc1sccc1C)C1CCS(=O)(=O)C1 (stereo not given),0.86,0.24
CNC(=S)N1CCN(c2nc(-c3ccc(Cl)cc3)cs2)CC1,0.04,0.39
CC(=O)c1c(C)[nH]c(C(=O)Nc2cc(F)ccc2C)c1C,0.63,-1.02
Cc1noc(NS(=O)(=O)c2ccc(NC(=O)c3cc(-c4ccccc4Cl)nc4ccccc34)cc2)c1C,0.3,-0.13
CCOc1ccc(S(=O)(=O)N2CC(=O)Nc3ccccc32)cc1,0.01,0.48
C=CCOc1c(Cl)cc(CNCCCN2CCOCC2)cc1OC,0.88,-1.52
O=C(CNC(=O)c1ccccc1F)NC1CCN(Cc2ccccc2)CC1,1.02,0.11
COC(=O)C1=C(O)CSC1=Nc1cccc(C(F)(F)F)c1,0.38,-1.26
O=C(c1ccc(Cl)cc1)c1ccc(OCC(O)CN2CCCCC2)cc1 (stereo not given),0.72,-0.05
CCNS(=O)(=O)c1ccc(NC(=S)N2CCc3ccccc32)cc1,0.07,0.34
Cc1ccccc1NC(=O)CSc1ccc(-c2ccco2)nn1,1.49,-2.05
CCOc1ccc(C(=O)NN2C(=O)C3C4C=CC(O4)C3C2=O)cc1 (stereo not given),1.19,0.76
CC(=O)N/C(=C\c1ccccc1)C(=O)OC(C)C(=O)NCc1ccccc1 (stereo not given),0.03,-0.86
COC(=O)c1cc(S(=O)(=O)NCCc2sccc2C)c[nH]1,0.06,-0.16
Cc1oc(-c2ccccc2Cl)nc1CS(=O)(=O)CC(=O)NC(C)c1ccccc1 (stereo not given),0.05,1.5

# Rewritten with values under each structure: six of the compounds above
# Order of values: KCNQ2 pot, KCNQ2 pot baseline
> COC(=O)C1=C(O)CSC1=Nc1cccc(C(F)(F)F)c1
    0.38, -1.26
> O=C(c1ccc(Cl)cc1)c1ccc(OCC(O)CN2CCCCC2)cc1 (stereo not given)
    0.72, -0.05
> CCNS(=O)(=O)c1ccc(NC(=S)N2CCc3ccccc32)cc1
    0.07, 0.34
> Cc1ccccc1NC(=O)CSc1ccc(-c2ccco2)nn1
    1.49, -2.05
> CCOc1ccc(C(=O)NN2C(=O)C3C4C=CC(O4)C3C2=O)cc1 (stereo not given)
    1.19, 0.76
> CC(=O)N/C(=C\c1ccccc1)C(=O)OC(C)C(=O)NCc1ccccc1 (stereo not given)
    0.03, -0.86

# More entries:
SMILES,KCNQ2 pot,KCNQ2 pot baseline
Cc1ccccc1NC(=O)C(C)N1C(=O)c2ccccc2C1=O (stereo not given),0.14,-2.98
COc1cc2nc(N(CCCN(C)C)C(=O)c3ccc(S(=O)(=O)N4CCc5ccccc54)cc3)sc2cc1OC,0.27,0.99
CCOc1ccc(NC(=O)c2cnc3scc(C)n3c2=O)cc1,0.4,0.03
Cc1ccc(C)c2[nH]c(=O)c(CN(CCCN(C)C)C(=O)NCc3ccccc3)cc12,0.14,0.26
COc1ccc(C(=O)CCC(=O)O)c(C)c1,0.92,-0.81
Cc1cccc(C(=O)Nc2sc3c(c2C(=O)O)CCCC3)c1,2.74,0.08
CCOc1ccccc1CNS(=O)(=O)c1cnc[nH]1,0.07,0.16
Cc1ccc(NC(=O)/C(C#N)=C/c2ccsc2)c(C)c1,1.47,-1.42
CCOC(=O)c1csc(NC(=O)Nc2cccc(Cl)c2)n1,0.11,1.06
CC(CN1CCCCC1)C(=O)NN (stereo not given),1.07,-2.27
CCNC(=O)/C(C#N)=C/c1c(N2CCCCCC2)nc2c(C)cccn2c1=O,0.23,0.02

# Screens deposited in PubChem BioAssay by Johns Hopkins Ion Channel Center.

# An excerpt; rates above refer to the full screens.
